KCNQ2 enhance: KCNQ2 (rat) channel potentiation; O88943; CHO-K1 KCNQ2, FluxOR thallium flux fluorescence; hits give high values; B-score at 10 µM; hit rate 0.54% among 310,000; AID 2239;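 active = fluorescence ratio B-score at least 3 SD of library B-scores, with initial fluorescence B-score within 3 SD, cut at about 5.3 in these data; same plate scores as AID 2156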;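 note: B-score of peak minus minimum over baseline fluorescence ratio after K+ and Tl+ stimulus; positive B-score means potentiation of KCNQ2 with more thallium influx and brighter signal; only the inactives scoring about 0 or higher are listed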
Target sequence (O88943 whole entry, looked up): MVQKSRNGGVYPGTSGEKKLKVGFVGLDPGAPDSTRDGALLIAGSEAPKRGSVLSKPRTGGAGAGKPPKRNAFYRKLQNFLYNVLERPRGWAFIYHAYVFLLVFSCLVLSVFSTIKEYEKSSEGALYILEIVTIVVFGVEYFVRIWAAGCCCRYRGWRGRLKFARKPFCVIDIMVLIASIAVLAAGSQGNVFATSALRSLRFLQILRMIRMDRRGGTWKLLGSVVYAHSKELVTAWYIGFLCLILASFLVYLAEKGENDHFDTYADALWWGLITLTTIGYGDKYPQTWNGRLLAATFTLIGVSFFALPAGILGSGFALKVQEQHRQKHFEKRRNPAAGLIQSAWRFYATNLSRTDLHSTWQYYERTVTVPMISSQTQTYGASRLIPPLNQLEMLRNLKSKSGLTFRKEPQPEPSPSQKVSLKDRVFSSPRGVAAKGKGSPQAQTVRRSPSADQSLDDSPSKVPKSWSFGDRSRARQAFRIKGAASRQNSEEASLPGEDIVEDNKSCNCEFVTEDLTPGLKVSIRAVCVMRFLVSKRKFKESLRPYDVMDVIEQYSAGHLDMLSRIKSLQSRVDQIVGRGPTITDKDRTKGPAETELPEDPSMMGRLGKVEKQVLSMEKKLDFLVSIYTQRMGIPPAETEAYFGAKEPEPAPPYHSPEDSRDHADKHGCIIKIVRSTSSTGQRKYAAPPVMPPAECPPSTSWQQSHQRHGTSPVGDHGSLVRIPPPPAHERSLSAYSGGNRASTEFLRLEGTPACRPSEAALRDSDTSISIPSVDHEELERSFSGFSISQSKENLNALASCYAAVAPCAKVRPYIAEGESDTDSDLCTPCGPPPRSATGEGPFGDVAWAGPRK
KCNQ2 enhance baseline: further read-out of KCNQ2 enhance, marked with its call; B-score; compound at 10 µM; measured here: initial fluorescence intensity artifact check;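 brightness before thallium and not channel activity; 0 = typical well and far values either way flag optical interference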
* = called active by the depositor.

Sample of the layout (3 entries):
Sequence of screens – KCNQ2 enhance | KCNQ2 enhance baseline
- O=C(O)c1nn(Cc2ncc(-c3cccc(Cl)c3)o2)c(=O)c2ccccc12
 : 0.45 | 0.17
- CCC(C)(C)C1CCc2c(sc(N)c2C(N)=O)C1 (centres undefined)
 : 0.25 | -0.56
- COc1ccc(C(=O)c2cn[nH]c2-c2cc(Cl)ccc2O)cc1
 : 0.49 | -0.34

The listing, from the first entry:
Sequence of screens – KCNQ2 enhance | KCNQ2 enhance baseline
- O=C(O)c1nn(Cc2ncc(-c3cccc(Cl)c3)o2)c(=O)c2ccccc12
 : 0.45 | 0.17
- CCC(C)(C)C1CCc2c(sc(N)c2C(N)=O)C1 (centres undefined)
 : 0.25 | -0.56
- COc1ccc(C(=O)c2cn[nH]c2-c2cc(Cl)ccc2O)cc1
 : 0.49 | -0.34
- COc1ccccc1Nc1nc(N)nc(-c2cc3ccccc3o2)n1
 : 1.7 | 1.9
- COc1ccccc1N(C(=O)c1csnn1)C(C(=O)NC1CCCC1)c1ccccc1 (centres undefined)
 : 0.03 | -1.4
- Cc1ccnc(NS(=O)(=O)c2ccc(NS(=O)(=O)Cc3ccccc3)cc2)n1
 : 0.4 | 1.6
- O=C(CSc1nnnn1C1CCCCC1)Nc1ccc(F)cc1
 : 1.7 | -0.45
- Cc1ccc(-c2nnc(Nc3ccccc3)c3ccccc23)cc1S(=O)(=O)NCC1CCCO1 (centres undefined)
 : 0.37 | 0.44
- O=C(c1ccco1)N1CCN(C(=O)C23CC4CC(CC(C4)C2)C3)CC1
 : 1.4 | 1.3
- CCOC(=O)NC(=O)c1cn(Nc2ncc(C(F)(F)F)cc2Cl)c(=O)[nH]c1=O
 : 0.01 | -0.15
- CCOc1cc(S(=O)(=O)N(CC)CC)c(OCC)cc1-n1cnnn1
 : 0.19 | -0.04
- COc1cc(NC(=O)Cc2ccc(F)cc2)cc(OC)c1OC
 : 0.29 | -0.04
- O=C(OCCCCN1C(=O)c2ccccc2C1=O)c1ccc(S(=O)(=O)N2CCCC2)cc1
 : 1.4 | -3
- Cn1nc(-c2ccc(C(=O)NCCO)cc2)c2ccccc2c1=O
 : 0.22 | -0.66
- CCOC(=O)c1c(C)[nH]c(C(C)=O)c1C
 : 0.11 | 0.19
- CCOCCSc1nnc2nc(C)cc(C)n12
 : 0.85 | -0.58
- CCOc1ccc(NC(=O)Nc2ccc3c(c2)nnn3C)cc1
 : 1.1 | -0.72
- Cc1noc(NC(=O)c2ccc(Cl)c(Cl)c2)c1Cl
 : 0.88 | 0.51
- CCc1cc(=O)[nH]c(SCc2ccc(C)cc2)n1
 : 1.1 | -1.8
- Cc1ccc(S(=O)(=O)N(CC(O)CN2CCCCC2)c2ccccc2)cc1 (centres undefined)
 : 0.03 | 0.16
- C=C(C)c1cccc(C(C)(C)NC(=O)N2CCCC2)c1
 : 0.86 | 0.97
- Cc1ccc(C)c(CN2CCNC2=O)c1
 : 0.81 | -1.4
- Cc1nc2scc(-c3ccccc3)c2c(=O)n1N
 : 0.36 | -1.1
- CN(C)S(=O)(=O)N1CCN(S(=O)(=O)c2ccc3ccccc3c2)CC1
 : 0.96 | -0.03
- Cn1ccnc1SCC(=O)Nc1ccc(Oc2ccccc2)cc1
 : 2.7 | -0.33
- O=C1C(Cc2ccc(O)cc2)NC(=S)N1C1CCCCC1 (centres undefined)
 : 0.3 | 0.63
- COc1ccc(CCN2C(=O)CC(NNC(=O)c3ccccc3Br)C2=O)cc1OC (centres undefined)
 : 0.06 | 0.15
- CC(=O)N1CCc2cc(S(=O)(=O)NCCC(=O)Nc3cccc(C)c3C)ccc21
 : 0.26 | 0.62
- COc1cc(OC)c2c(-c3ccccc3)cc(=O)oc2c1C(CCN1CCN(c2ccccc2)CC1)c1ccc(N(C)C)cc1 (centres undefined)
 : 0.1 | -1.1
- CCC(=O)NC(=S)Nc1cccc(NC(=O)CC)c1
 : 1.2 | 0.99
- O=C(NCC1CCCO1)c1ccc(CS(=O)(=O)c2ccc(Br)cc2)o1 (centres undefined)
 : 1.4 | 0.2
- O=C(CC1C(=O)NCCN1C(=O)c1ccc([N+](=O)[O-])cc1)Nc1cccc(Cl)c1 (centres undefined)
 : 0.54 | -0.54
- Cc1ccc(N2C(=O)C3ON(c4ccccc4)C(c4ccncc4)C3C2=O)c(C)c1 (centres undefined)
 : 0.91 | 0.75
- O=C(NC(O)C(=O)c1ccccc1)c1ccc(F)cc1 (centres undefined)
 : 0.01 | 0.22
- O=S(=O)(/N=C(\c1ccc(Cl)cc1)N1CCOCC1)c1ccccc1
 : 0.46 | -1.1
- Cc1ccc2c(c1)c(-c1ccccc1)nc1nncn12
 : 0.43 | -0.76
- COc1cccc(NC(=O)CN(C)C(C)C(=O)Nc2ccc(S(=O)(=O)N3CCCC3)cc2)c1 (centres undefined)
 : 0.25 | -0.04
- COc1ccc(-c2nn3c(-c4ccccc4)nnc3s2)cc1OC
 : 0.07 | 2
- N#Cc1ccccc1NC(=O)c1cccc(COc2ccc(Cl)cc2Cl)c1
 : 1.8 | -1.1
- CC(=O)Nc1ccc(N2C(=O)CSC2c2ccc(F)cc2)cc1 (centres undefined)
 : 0.03 | -0.01
- CCn1c(-c2ccsc2)nc2c1c(=O)[nH]c(=O)n2Cc1ccccc1
 : 0.64 | -0.96
- CC(c1ccon1)N(C)C(=O)CCc1nnc(C2(c3ccc(Cl)cc3)CCC2)o1 (centres undefined)
 : 1.9 | 4.1
- CC(C(=O)NC1CC1)c1ncc(C(F)(F)F)cc1Cl (centres undefined)
 : 0.86 | -0.63
- O=S(=O)(/N=C(/Nc1cccc2ccccc12)c1ccccc1)c1ccc(Br)cc1
 : 0.17 | -0.83
- CCOC(=O)CC(NS(=O)(=O)c1ccc(OC)c(OC)c1)c1cccc([N+](=O)[O-])c1 (centres undefined)
 : 0.32 | 0.34
- CCCN(CCC)CCNC(=O)C1CC(=O)N(c2ccc(OC)cc2)C1c1ccc(OC)cc1 (centres undefined)
 : 0.49 | -2.4
- Brc1ccc(-c2nnc3n2-c2ccccc2CC3)cc1
 : 0.46 | -0.72
- Cc1cccn2c(NCc3ccc4c(c3)OCO4)c(-c3ccc(O)cc3)nc12
 : 1.5 | -2
- CCN(CC)C(=O)CSc1nnc(-c2ccco2)n1Cc1ccco1
 : 0.05 | 2.3
- Cc1ccc(-c2nnn(CC(=O)N(CC(=O)NC3CCCC3)c3ccccc3F)n2)o1
 : 1.9 | 0.52
- CCC(C)(C)c1ccc(OCCCC[n+]2ccc(C)cc2)c(C(C)(C)CC)c1
 : 2.1 | -1
- CCOc1ccccc1C(=O)NCC(=O)N(C)Cc1cccnc1
 : 0.12 | -0.57
- CCCNC(=O)C1CCN(S(=O)(=O)c2ccc(-c3nn[nH]n3)cc2)CC1
 : 0.66 | 0.95
- Cc1nc2sccn2c(=O)c1S(=O)(=O)N1CCN(c2cccc(C(F)(F)F)c2)CC1
 : 0.68 | 1.2
- COc1ccc(C(=O)COC(=O)c2ccc(-n3cnnn3)cc2)c(OC)c1
 : 0.03 | -0.24
- COc1ccccc1NC(=O)CN1CCN(CC(=O)Nc2cc(NC(C)=O)ccc2OC)CC1
 : 1.1 | -0.01
- CCn1c(CN2CCOCC2)nnc1SCC(=O)Nc1cccc(C)c1
 : 0.57 | 0.48
- CC(=O)Nc1nonc1-c1nc2ccccc2n1Cc1ccccc1
 : 0.04 | -0.86
- COc1cc(Cc2nccc3cc(OC)c(OC)cc23)c(NC(C)=O)cc1OC
 : 2 | -1.1
- O=C(O)CC(NC(=O)C12CC3CC(CC(C3)C1)C2)c1cccc([N+](=O)[O-])c1 (centres undefined)
 : 1.4 | -0.77

Structural class: those above containing a COOH group (2)
Sequence of screens – KCNQ2 enhance | KCNQ2 enhance baseline
- O=C(O)c1nn(Cc2ncc(-c3cccc(Cl)c3)o2)c(=O)c2ccccc12
 : 0.45 | 0.17
- O=C(O)CC(NC(=O)C12CC3CC(CC(C3)C1)C2)c1cccc([N+](=O)[O-])c1 (centres undefined)
 : 1.4 | -0.77

(next part)
Sequence of screens – KCNQ2 enhance | KCNQ2 enhance baseline
- Cc1[nH]c2ccccc2c1C(=O)C(=O)Nc1ccc2c(c1)OCCO2
 : 1.4 | -2
- O=C(CN(C(=O)c1csnn1)c1ccccc1F)NC1CCCCC1
 : 0.11 | 2.8
- S=C1NC2(CCCCC2)Cc2ccccc21
 : 0.79 | 1.2
- Cc1cccc(NC(=O)CSc2nnc(CNC(=O)c3ccco3)n2C)c1
 : 1.4 | -0.25
- O=C(O)C1=C[C@H](c2ccc(C(F)(F)F)cc2)C[C@H](OCc2ccc(CO)cc2)O1
 : 1.3 | -0.31
- COc1cccc(C(=O)Nc2cnn(C(C)C)c2)c1
 : 0.76 | -1.1
- Cn1c(CCNC(=O)C2CCCCC2)nc2cc(NC(=O)c3cccs3)ccc21
 : 0.29 | -0.02
- Cc1ccc(Nc2nc(-c3ccc(F)cc3)cs2)nc1
 : 1.1 | -1
- Cc1ccc2c(c1)Oc1ccc(NC(=O)CCl)cc1C(=O)N2
 : 1.4 | -0.69
- O=C(CSc1n[nH]c(=O)n1Cc1ccco1)c1ccc2c(c1)OCCO2
 : 1.1 | 0.5
- COc1ccc(CCN2C(=O)CC(NNC(=O)c3ccccc3Br)C2=O)cc1 (centres undefined)
 : 0.02 | 0.48
- O=C(c1nc2ccccn2c1CNCC1OCCc2ccccc21)N1CCOCC1 (centres undefined)
 : 0.43 | 1.1
- CCc1ccc(S(=O)(=O)N2CCN(C(=O)c3cccnc3)CC2)cc1
 : 0.04 | 0.93
- COc1ccccc1CN1CC(C(=O)N2CCC(C(=O)c3ccccc3)CC2)CCC1=O (centres undefined)
 : 0.77 | -3.1
- C=CCC(NC(C)c1ccccc1)c1ccco1 (centres undefined)
 : 0.19 | -0.95
- CCOc1ccc(N2C(=O)CC(n3nc(C)cc3C)C2=O)cc1 (centres undefined)
 : 2 | -0.02
- CC(C)(C)c1ccc(-c2nc(O)c(CC(=O)O)s2)cc1
 : 1.8 | 0.8
- CCNC(=O)COc1cccc(C(=O)NCc2ccccc2)c1
 : 0.09 | 1
- COc1ccc(-n2c(SCCC(=O)O)nnc2-c2ccncc2)cc1
 : 0.79 | 0.78
- O=C(CN1C(=O)c2cccc3cccc(c23)C1=O)N1CCN(Cc2ccc3c(c2)OCO3)CC1
 : 2.1 | -0.92
- CC(=O)N1CC(C)Sc2ccc(S(=O)(=O)N3CCCCC3)cc21 (centres undefined)
 : 0.33 | 1.4
- CC(=O)c1ccccc1OCCOc1ccccc1C(C)=O
 : 0.36 | 1.2
- COc1ccc(F)c(CN2CCCC(CNS(=O)(=O)c3cccc4cccnc34)C2)c1 (centres undefined)
 : 0.27 | 0.75
- COc1ccc(-n2c(SCC(=O)Nc3ccccc3)nnc2-c2ccc(NS(=O)(=O)c3ccc(C)cc3)cc2)cc1
 : 0.17 | 0.05
- c1ccc(NC2=NCCN2CC2CCCC2)cc1
 : 0.21 | -1.3
- CN(C)c1ccc(CNC(=O)CCS(=O)(=O)c2ccc3c(c2)n(C)c(=O)c(=O)n3C)cc1
 : 2.4 | -0.01
- CCn1c(=O)cc(SCC(=O)Nc2ccc(OC)c(OC)c2)c2ccccc21
 : 1.4 | -0.99
- O=C(CCC(=O)N/N=C/c1c[nH]c2ccccc12)NCc1ccccc1
 : 1.5 | -1.4
- CC(=O)N1CCC2(CC1)CC(=O)c1cc(OCC(=O)N3CCCC3)ccc1O2
 : 0.03 | 2.4
- CC(=O)OC(C(=O)NC1CCCCC1)c1ccc(Cl)c(Cl)c1 (centres undefined)
 : 0.81 | -0.29
- C/C=C/COc1nc2c(c(=O)n(C)c(=O)n2C)n1C
 : 0.6 | -0.19
- COc1ccc(OC)c(S(=O)(=O)Nc2c(F)cccc2F)c1
 : 1.1 | -1.1
- O=C(NC1=NCCS1)c1cccc(NC(=O)c2ccco2)c1
 : 1.7 | -1.6
- O=C(Nc1ccc(Cl)c(S(=O)(=O)N2CCOCC2)c1)c1ccc2c(c1)OCCO2
 : 0.65 | 0.9
- CCOc1cc(C=O)cc(N=Nc2cccc([N+](=O)[O-])c2)c1O
 : 0.02 | -0.24
- CCCn1c(CCC(=O)Nc2ccccc2Cc2ccccc2)nc2cc(S(=O)(=O)N3CCOCC3)ccc21
 : 0.07 | -0.01
- CCC(C)(C)n1nnnc1C(c1ccc(OC)c(OC)c1)N1CCN(c2ccc(OC)cc2)CC1 (centres undefined)
 : 0.1 | 0.29
- CS(=O)(=O)Cc1ccc(C(=O)NC(c2ccccc2)c2ccccc2)cc1
 : 2.4 | 1.2
- CCCCc1cc(C(=O)Cc2ccccn2)c(O)cc1O
 : 0.23 | 0.01
- CN1C(=O)c2ccc(Oc3ccccc3)cc2C1=O
 : 1.5 | -0.08
- Clc1cccc(-c2nnc3n2CCCCC3)c1
 : 0.54 | 0.63
- CC(C)(C(=O)N[C@H](CO)c1ccccc1)C(=O)N[C@H](CO)c1ccccc1
 : 0.03 | -0.27
- CCOC(=O)CSc1nnc(CCc2nc3ccccc3[nH]2)n1C
 : 0.57 | -0.05
- CCCOC(=O)C1=C(C)N(C)C(=O)NC1c1cc2c(cc1Br)OCO2 (centres undefined)
 : 0.89 | 0.63
- Cc1n[nH]c(=O)n1-c1ccc(Oc2ccccc2)cc1
 : 0.22 | -0.11
- CC1(C)CC2CC(C)(CN2/C=N/c2sc3c(c2C#N)CC(C)(C)NC3(C)C)C1 (centres undefined)
 : 1.1 | -1.2
- COc1ccccc1OCCCOc1c(Cl)cc(C)cc1Cl
 : 0.23 | 0.07
- CC(OC(=O)c1cc2sccc2n1C)C(=O)NCC1CCCO1 (centres undefined)
 : 0.12 | 0.22
- O=S(=O)(NCCc1csc(-c2ccccc2)n1)c1ccc2c(c1)OCCO2
 : 0.05 | -0.81
- COc1cccc(C(O)c2nc3ccccc3n2C(C)C)c1 (centres undefined)
 : 0.26 | -0.1
- Cc1cc(NC(=O)c2c(Br)cnn2C)no1
 : 0.71 | 1.7
- Nc1nc(SCC(=O)Nc2ccc(Cl)cc2)[nH]c(=O)c1-c1ccccc1
 : 0.1 | 0.49
- Cc1nnc(Sc2nc3c(c(=O)n(C)c(=O)n3C)n2Cc2ccc(Cl)cc2)s1
 : 1.4 | -1.5

Bioassay records: PubChem, Johns Hopkins Ion Channel Center

Some of the compounds tested; count on the stated rates, not on these rows.
